eIF4H inh: inhibitors of RNA binding by human eIF4H; Q15056; eIF4H fluorescence polarization binding assay; inhibition, % at 35 µM; 290,000 compounds, 0.94% hits; AID 2012;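 active = 50% or more with normal probe brightness, or confirmed in later tests; inconclusive = above 50% with abnormal brightness, or retests that disagree; inactive = below 50% or failed in later tests; about a fifth of its hits are not listed in these tables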;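 also: calls also rest on retests at 20 µM and on dose response follow-up; 0% = protein and probe with vehicle and 100% = probe without protein; strong numbers were not always called active; many hits fall short of the cut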
MT1-MMP act inh: inhibitors of human MT1-MMP activation; GFP/RFP ratio change, % at 20 µM; P50281; HT1080 RFP-PRO-GFP cells, GFP/RFP ratio fluorescence, overnight; percent of plate control window, DMSO zero; 360,000 compounds, 0.061% hits;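 active = GFP/RFP ratio change of at least 30% with cell ATP level not reduced by more than half and red fluorescence within 50% of control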; also: strong numbers were not always called active
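Assay system – RFP-PRO-GFP reporter HT1080 cells · Compound dosing – single dose of 20 µM compound, 1% DMSO final · Incubation – overnight compound exposure at 37 °C · Measure – GFP/RFP fluorescence ratio · Benchmarks – DMSO wells and RFP-L50D-GFP cells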
Rce1 inhib: yeast Ras-converting enzyme inhibition | calls only | 290,000 compounds, 0.27% hits | yeast membranes, quenched prenylated peptide cleavage fluorescence | Q03530;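 active = fall in fluorescence gain of 50% or more versus controls, with final raw signal at or below 3038400; inconclusive = same 50% fall but final raw signal above 3038400; inactive = fall in fluorescence gain under 50%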;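 also: plate controls were neutral control wells for no effect and wells lacking membranes for full effect; tested at 10 µM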
Target sequence (Q03530 whole entry, looked up): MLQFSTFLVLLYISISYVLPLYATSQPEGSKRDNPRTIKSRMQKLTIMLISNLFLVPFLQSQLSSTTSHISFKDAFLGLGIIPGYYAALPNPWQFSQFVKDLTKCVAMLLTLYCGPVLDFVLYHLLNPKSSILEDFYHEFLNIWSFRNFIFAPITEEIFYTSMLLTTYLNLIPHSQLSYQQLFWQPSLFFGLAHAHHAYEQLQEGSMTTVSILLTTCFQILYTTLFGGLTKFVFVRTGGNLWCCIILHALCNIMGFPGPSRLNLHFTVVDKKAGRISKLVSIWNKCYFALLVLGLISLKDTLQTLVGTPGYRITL
Env fusion inh: HIV envelope-mediated fusion inhibition; HeLa-JRFL Env/CEM21 cell fusion, luciferase; inhibition, % at 12.3 µM; 360,000 compounds, 1.1% hits; AID 651610;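 active = mean replicate inhibition score of at least 50 and every replicate individually at or above 50; inconclusive = only one of the two criteria met; inactive = mean below 50 and not all replicates reaching 50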;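 also: 0% = plate neutral controls and 100% = maraviroc near 300 nM; one replicate is shown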
UUG fidelity: yeast start codon fidelity modulation | S. cerevisiae UUG-firefly luciferase reporter, luminescence/redox ratio | activity score, % at 18.7 µM | 350,000 compounds, 0.13% hits;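 active = replicate mean at a twofold rise or more, about +100% in these data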;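 also: firefly luciferase made from a UUG start codon reports start codon fidelity; reporter light over untreated wells divided by growth signal over untreated wells; some hits fall short of that in this replicate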
PABP FP inh: blocks human PABP binding to poly(A) RNA. P11940. fluorescence polarization. 290,000 compounds, 1% hits. AID 2014. inhibition, % at 35 µM;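 active = 50% or more with normal probe brightness, or confirmed in later tests; inconclusive = above 50% with abnormal brightness, or retests that disagree; inactive = below 50% or failed in later tests; about a fifth of its hits are not listed in these tables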;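 also: calls also rest on retests at 20 µM and on dose response follow-up; controls were probe without protein and protein plus probe with vehicle; some compounds called inactive have numbers as strong as hits; many hits fall short of the cut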
CSC inhib: cancer stem cell inhibition. cancer stem cell-like cells viability, luminescence. inhibition, % at 7.5 µM. 300,000 compounds, 1.1% hits;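 active = mean at 75% or more and at least half the replicates too; inconclusive = mean and replicates disagree; tested in HMLE shEcad cells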;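 also: 0% = median of negative and 100% = median of positive control wells; the first replicate is given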
eIF4H inh retest: second read-out of eIF4H inh, no call of its own (marks repeat the call); inhibition, %; compound at 20 µM; confirmation average;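 mean of two retest wells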
PABP FP inh retest: also measured in PABP FP inh; calls as there; inhibition, %; compound at 20 µM; confirmation repeats;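 mean of two retest wells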
MT1-MMP act inh RFP: also measured in MT1-MMP act inh; calls as there; RFP signal change, %; measured here: RFP expression control read;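 0 = vehicle wells; hits needed this value within 50% of zero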
Starred values were filed as active, the others as inactive; i = inactive; ? = inconclusive; / = no result given; + = active, no number.

SMILES | eIF4H inh | MT1-MMP act inh | MT1-MMP act inh RFP | Rce1 inhib | Env fusion inh | UUG fidelity | PABP FP inh | CSC inhib | others
COc1ccc(-c2nnn(Cc3ccccc3)n2)cc1OC | -4 | -1 | -4 | i | -9 | -5 | 5 | -14
Cc1ccc(/C=N/NC(=O)c2nnn(-c3nonc3N)c2CN(C)C)s1 | 64 | -1 | 2 | i | -1 | -15 | 9 | -23 | eIF4H inh retest=-5;PABP FP inh retest=-1
COc1ccc(OC2C(=O)N(Cc3ccc4c(c3)OCO4)C2c2sccc2C)cc1 (stereo not given) | 1 | -9 | -7 | i | / | -18 | 5 | 117*
COc1cc(/C=C2\CCOC2=O)cc(OC)c1OC | 5 | 1 | 0 | i | 8 | -11 | -3 | 0
Cc1ccc(S(=O)(=O)N(C)C)cc1NC(=O)COC(=O)CCC(=O)c1ccc(F)cc1 | -4 | 2 | 5 | i | -13 | / | 5 | -4
Cc1cccc(OCC(O)Cn2c(NCCCOC(C)C)nc3c2c(=O)[nH]c(=O)n3C)c1 (stereo not given) | -4 | -5 | -3 | i | / | -14 | -2 | 7
COc1cccc(N2CC(NS(=O)(=O)c3ccc4ccccc4c3)CC2=O)c1 (stereo not given) | / | 0 | -4 | i | 2 | 12 | / | 2
CCCCC/C=N/NC(=O)c1[nH]c2ccc([N+](=O)[O-])cc2c1C | -4 | -5 | -5 | i | 15 | / | -8 | -15
COC(=O)c1cc(=O)n(Cc2ccccc2)c(=NCc2ccccc2)s1 | 2 | / | / | / | 3 | / | -4 | -4
CCCCCNC(=O)Cc1ccc(OC)cc1 | -8 | -2 | 2 | i | / | -20 | 11 | -14
COc1ccc(OC(F)(F)F)cc1CC1(C)C(=O)Nc2ccc(-c3ccsc3)cc21 (stereo not given) | / | -13 | -10 | / | 58* | 8 | / | /
COc1ccc(C(=O)Nc2ccc(S(=O)(=O)NC(C)=O)cc2)cc1 | -9 | 1 | 2 | i | -18 | -5 | 0 | 2
C/C(=N\Nc1ccccn1)c1ccc(Br)s1 | / | 3 | 2 | i | -17 | -9 | / | 6
Cc1ccc(-c2cc(C(=O)NCc3cnn(C)c3C)c3cc(Br)ccc3n2)cc1 | -2 | -3 | -4 | i | -184 | 10 | -1 | 20
COCCOC(=O)C1=C(C)NC2=C(C(=O)CC(C)(C)C2)C1c1ccc2c(c1)OCO2 (stereo not given) | 1 | 1 | -2 | / | / | -30 | 4 | -27
CCOC(=O)c1cc2c(=O)[nH]ccc2nc1C | 4 | 6 | 1 | + | / | -16 | 7 | -3
Cc1ccc2nc(Nc3ncc4c(n3)CC(C)(C)CC4=O)nc(C)c2c1 | -2 | 4 | 2 | i | 7 | -6 | -4 | -4
CCOC(=O)CSc1nc2c(c(=O)n(C)c(=O)n2C)n1CCCc1ccccc1 | -6 | 5 | -1 | i | / | / | -2 | /
O=C(NCc1cccs1)C1CCN(S(=O)(=O)c2cccc3nsnc23)CC1 | 8 | 10 | 2 | i | / | -12 | -8 | -13
COCCn1c(SCC(=O)c2ccc3c(c2)OCCO3)nnc1-c1ccoc1C | -2 | -6 | 1 | i | -1 | -22 | -2 | -16
CCOc1cc(N2CCOCC2)c(OCC)cc1NC(=O)COC(=O)C1CCCN1S(=O)(=O)c1ccccc1F (stereo not given) | / | 3 | 1 | / | / | 16 | / | -11
Cn1c(=O)c2c(ncn2CC(=O)Nc2ccc(Cl)cc2Cl)n(C)c1=O | -9 | -3 | -3 | i | 29 | -7 | -9 | 6
O=S(=O)(c1cc(Br)ccc1Br)N1CCCCCC1 | 5 | -2 | -3 | i | 22 | -6 | 9 | -1
CC(/C=C/c1ccccc1)=N/NC(=O)c1cccc(Br)c1 | 1 | 7 | 5 | i | -3 | / | -5 | 39
COc1ccccc1NS(=O)(=O)c1ccc(C)c(C(=O)NCCCN2CCCC2=O)c1 | / | 1 | -1 | i | 11 | / | / | 0
O=C(Nc1ccc(-n2cnnn2)cc1)C1CCCN1C(=O)NC1CCCCC1 (stereo not given) | 4 | -5 | 0 | i | 0 | -11 | -1 | -11
CCOC(=O)c1nc(C)[nH]c1C(=O)OCC | 0 | 1 | 5 | i | 12 | -12 | 13 | -4
CSc1ccccc1OCc1cc(C(=O)NC(C)Cc2cccc(C)n2)no1 (stereo not given) | -1 | 1 | -4 | i | -3 | -16 | -10 | 3
N#Cc1c(NC(=O)CSc2nnc(-c3ccccc3)o2)sc2c1CCCC2 | -7 | -1 | 1 | i | / | -11 | -5 | /
CCCC(=O)N1CCC1(C)C(=O)NS(=O)(=O)c1ccc(C)cc1 (stereo not given) | / | 0 | 5 | / | 10 | 23 | / | /
COc1cc(/C=C/C(=O)OCC(=O)N2CCCc3ccccc32)ccc1OCC#N | / | 0 | 1 | / | -2 | -9 | / | /
COc1ccc(C2(C)NC(=O)N(CC(=O)c3cc(C)n(C4CC4)c3C)C2=O)cc1 (stereo not given) | / | -1 | -3 | / | -11 | 2 | / | /
O=C(Nc1ccc(Cl)cc1)C1CCC(=O)N1Cc1ccccc1Cl (stereo not given) | -2 | 1 | -2 | i | / | -3 | -5 | 6
O=C(Cc1cccs1)NCCn1ccc2ccccc21 | -9 | 8 | 1 | i | -19 | -16 | 4 | 17
Cc1cccc(NC(=O)CSc2nccn2Cc2ccco2)c1C | 0 | -2 | 1 | i | 0 | -10 | 3 | -19
O=C(CSc1nnnn1-c1ccc2c(c1)OCCO2)OC1CCCCC1 | -12 | 7 | -2 | / | / | 5 | 3 | -11

Molecules above containing a furan ring, fused or not:
SMILES | eIF4H inh | MT1-MMP act inh | MT1-MMP act inh RFP | Rce1 inhib | Env fusion inh | UUG fidelity | PABP FP inh | CSC inhib | others
COCCn1c(SCC(=O)c2ccc3c(c2)OCCO3)nnc1-c1ccoc1C | -2 | -6 | 1 | i | -1 | -22 | -2 | -16
Cc1cccc(NC(=O)CSc2nccn2Cc2ccco2)c1C | 0 | -2 | 1 | i | 0 | -10 | 3 | -19

3 successive entries out of the list so far, for reference:
SMILES | eIF4H inh | MT1-MMP act inh | MT1-MMP act inh RFP | Rce1 inhib | Env fusion inh | UUG fidelity | PABP FP inh | CSC inhib | others
O=C(Cc1cccs1)NCCn1ccc2ccccc21 | -9 | 8 | 1 | i | -19 | -16 | 4 | 17
Cc1cccc(NC(=O)CSc2nccn2Cc2ccco2)c1C | 0 | -2 | 1 | i | 0 | -10 | 3 | -19
O=C(CSc1nnnn1-c1ccc2c(c1)OCCO2)OC1CCCCC1 | -12 | 7 | -2 | / | / | 5 | 3 | -11

Continuation:
SMILES | eIF4H inh | MT1-MMP act inh | MT1-MMP act inh RFP | Rce1 inhib | Env fusion inh | UUG fidelity | PABP FP inh | CSC inhib | others
Cc1cc(OCC(=O)N2CCCC2)ccc1Cl | -7 | -2 | 3 | i | -57 | -29 | -5 | -10
CCc1cc(C(=O)N(CC)CC(=O)Nc2ccc(OC)cc2)sc1C | / | -2 | -1 | / | 5 | 0 | / | /
O=[N+]([O-])c1ccc(Cl)c(/C=N/n2c(-c3ccncc3)n[nH]c2=S)c1 | 5 | 1 | -9 | i | -2 | -12 | 27 | 13
COc1cccc(C(=O)Nc2ccc(N3CCN(C(=O)c4cccs4)CC3)cc2)c1 | -1 | -8 | -15 | i | -177 | -8 | -6 | 12
COc1ccc(Oc2nc3c(C)cccn3c(=O)c2/C=C(\C#N)C(N)=O)cc1 | 14 | 1 | 3 | i | 6 | / | 18 | 11
Cn1c(NC(=O)c2ccc(F)cc2)c(-c2cccs2)c(=O)c2ccccc21 | 15 | -5 | 1 | i | 3 | / | 4 | -2
CC1CCN(S(=O)(=O)c2ccccc2)CC1 | -4 | -2 | -2 | i | -3 | -16 | -2 | -4
OCCN(Cc1ccccc1)Cc1ccccc1F | -5 | -1 | 4 | i | -27 | -6 | -2 | -13
COc1ccc(-c2nn(-c3ccccc3)cc2CNC[C@H]2O[C@@H](n3cnc4c(N)ncnc43)[C@H](O)[C@@H]2O)cc1 | / | 1 | -2 | / | -14 | 4 | / | /
C(=N\NC1=Nc2cccc3cccc1c23)/c1ccccc1 | ? | -12 | 7 | i | i | / | -15 | -9
O=C(O)c1cn(-c2ccccc2)nc1-c1ccncc1 | -4 | -4 | -5 | i | / | -8 | -6 | -16
COc1ccc(CC(=O)N(CCC2=CCCCC2)c2c(N)n(Cc3ccccc3)c(=O)[nH]c2=O)cc1 | / | -3 | -3 | / | -72 | 9 | / | /

2 entries drawn at random from those above, as already listed:
SMILES | eIF4H inh | MT1-MMP act inh | MT1-MMP act inh RFP | Rce1 inhib | Env fusion inh | UUG fidelity | PABP FP inh | CSC inhib | others
C(=N\NC1=Nc2cccc3cccc1c23)/c1ccccc1 | ? | -12 | 7 | i | i | / | -15 | -9
CCc1cc(C(=O)N(CC)CC(=O)Nc2ccc(OC)cc2)sc1C | / | -2 | -1 | / | 5 | 0 | / | /

More entries
SMILES | eIF4H inh | MT1-MMP act inh | MT1-MMP act inh RFP | Rce1 inhib | Env fusion inh | UUG fidelity | PABP FP inh | CSC inhib | others
Cc1nc2ccc(F)cc2cc1C(=O)NC(C)C | -1 | -8 | 10 | i | / | -23 | 11 | 2
[S-]C(=Nc1ccc(Cl)cc1)N[n+]1ccccc1 | 0 | -7 | 0 | i | 3 | -14 | 18 | -14
CC1CN(C(=O)CCNS(=O)(=O)c2ccc(Br)cc2)CC(C)O1 (stereo not given) | / | -16 | -6 | i | 0 | / | / | -5
O=C(N=C1c2ccccc2CN1c1ccc(F)cc1)c1ccc(Cl)nc1 | -18 | 3 | 8 | i | 12 | 6 | -22 | -1
O=C(NCc1ccc(F)cc1)C1CCN(S(=O)(=O)c2ccc(Br)s2)CC1 | 4 | 2 | -2 | / | -9 | -1 | 2 | -6
CCOC(=O)c1cc(NC(=O)C2C3C=CC(O3)C2C(=O)O)cc(C(=O)OCC)c1 (stereo not given) | -1 | 2 | 1 | i | 8 | -19 | 5 | -21
CC(C)Oc1cccc(C(=O)C2CCCN(C(=O)CCc3cnn(C)c3)C2)c1 (stereo not given) | -13 | 0 | 0 | i | -6 | 0 | -2 | 0
Cc1ccc2c(c1)N(CC(=O)N1CCCCCC1)C(=O)c1cccnc1O2 | -6 | 2 | 4 | i | 8 | -13 | -12 | -8
CC(C)(C)C1CCC(=NNC(=O)C2COc3ccccc3O2)CC1 (stereo not given) | / | 0 | 3 | / | / | 4 | / | -29
C[C@H](NC(=O)[C@@H]1CSC2c3ccccc3C(=O)N21)C(=O)NC1CCCC1 (stereo not given in full) | 9 | 0 | 1 | i | 8 | -3 | 6 | -7
O=C(CCCSc1ccccc1)Nc1nc(-c2ccco2)c(-c2ccco2)s1 | 96* | -8 | 0 | i | -14 | -15 | 18 | 58 | eIF4H inh retest=55*;PABP FP inh retest=32
Cc1ccccc1S(=O)(=O)/N=C(/Nc1c(C)n(C)n(-c2ccccc2)c1=O)c1ccccc1 | -2 | 2 | 1 | i | -12 | -7 | 11 | -2
CC(C)C[C@H](NC(=O)c1nc[nH]c1C(=O)N1CCc2ccccc2C1)C(=O)OCc1ccccc1 | 16 | -2 | -5 | i | 6 | -5 | 18 | /
Cc1ccc(NC(=O)COc2ccc(Br)cc2CO)cc1S(=O)(=O)N1CCOCC1 | / | 2 | -11 | / | -2 | -12 | / | 0
Cc1snc(S(=O)(=O)Cc2c(Cl)cccc2Cl)c1C#N | -15 | 5 | 1 | i | -38 | -5 | -6 | -3
Cc1cc(N/N=C/c2cccc(Cl)c2)nc(NCc2ccccc2)n1 | -5 | -11 | -8 | i | -12 | -1 | -16 | 56

A portion of the library; the hit share may differ from the screen's.
